Assay outcomes: PubChem, Southern Research Specialized Biocontainment Screening Center
V. cholerae QS = Vibrio cholerae quorum sensing activators, luminescence (AID 686977); V. cholerae quorum sensing reporter, luminescence, 6 h; higher luminescence means a stronger effect; most inactives read 0; one-dose luminescence at 50 µM unless noted; EC50 in µM for titrated hits; 9,400 tested, under 10 active;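 active means light above mean plus 3 SD and confirmed in a dose series; inconclusive means above that limit without a clear retest; inactive means below it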;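 further: raw light counts without normalisation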
The depositor's hits bear a star; ? = inconclusive; [ ] = dose if it differs, or a comment.

compound | V. cholerae QS
Cn1c(=O)n(C)c2cc([N+](=O)[O-])c(N3CCN(S(=O)(=O)c4ccc(C(C)(C)C)cc4)CC3)cc21 | 0
CC(C)COC(=O)c1ccc(NC(=O)C2C3CCC(C3)C2C(=O)O)cc1 (stereo unspecified) | 0
CC(C)(C)n1nc2c(c1NC(=O)c1ccc(Br)cc1)CS(=O)C2 (stereo unspecified) | 0
CC(=O)C1(c2ccccc2)CCNCC1 | 0
CC(C)Cc1cc(C(=O)NCc2cccs2)no1 | 0
Oc1c(C(c2cccs2)N2CCN(c3cccc(Cl)c3)CC2)sc2ncnn12 (stereo unspecified) | 40
Cc1ccc(C)n1-c1cccc(C(=O)O)c1 | 0
COc1cc([C@@H]2c3cc4c(cc3[C@H](O)[C@H]3COC(=O)[C@H]23)OCO4)cc(OC)c1OC | 40[10 µg/mL]
O=C(O)Cc1ccc(NC(=O)C2CC=CCC2C(=O)O)cc1 (stereo unspecified) | 0
Cc1c(NC(=O)c2ccc3ncccc3c2)c(=O)n(-c2ccccc2)n1C | 40
Cc1ccc(Nc2ccc([N+](=O)[O-])nc2[N+](=O)[O-])cc1 | 0
CCOc1ccc(CN2C(=O)CCC2(C)C(=O)NCc2cccnc2)cc1 (stereo unspecified) | 40
O=C(NCc1ccco1)c1cc2n(n1)C(C(F)(F)F)CC(c1ccc(Br)cc1)N2 (stereo unspecified) | 40
CCC1=NN(C(=O)C(=O)NCCc2ccccc2)C(O)(C(F)(F)F)C1 (stereo unspecified) | 40
Cc1nc2nc(Cc3ccccc3)[nH]n2c(=O)c1Cc1ccccc1 | 0
C=CCNc1nc(N2CCCC2)nc2ccccc12 | 0
O=C(Nc1nccs1)C1CC(=O)N(c2ccccc2Cl)C1 (stereo unspecified) | 40
CCCCNC(=O)Cn1c2c(c(-c3ccccc3Cl)cc1=O)CCC2 | 40
CCCN(CCC)CCCNC(=O)c1cc2c(=O)n(C)c3ccccc3c2n1C | 0
COc1ccc(NC(=O)CSc2nnc(Cc3cccn3C)n2-c2ccc(C)cc2)cc1OC | 40
CC(=O)Nc1nnc(-c2ccc(Cl)s2)o1 | 0
CCOC(=O)N1CCN(CC(=O)Nc2cc3c(cc2C(C)=O)OCO3)CC1 | 0
COc1ccc(C2C3=C(N=C4SCC(=O)N42)c2ccccc2CC3)cc1OC (stereo unspecified) | 40
CC(C)(C)NC[C@H](O)COc1nsnc1N1CCOCC1 | 0[10 µg/mL]
CC1Cc2ccccc2N1C(=O)CCS(=O)(=O)c1cccs1 (stereo unspecified) | 40
Cc1cc(C)n2nc(C(=O)NCc3ccccc3)nc2n1 | 40
CCC(C)NC(=O)c1cc(CC(C)C)on1 (stereo unspecified) | 0
CN(C)[C@@H]1C(=O)C(C(N)=O)=C(O)[C@@]2(O)C(=O)C3=C(O)c4c(O)cccc4[C@@](C)(O)[C@H]3[C@H](O)[C@@H]12 | 0[10 µg/mL]
CC(C)(C)OC(=O)NCC(=O)NCC(=O)OCc1ccccc1 | 0
CCc1nc(Nc2ccc(N3CCN(C(C)=O)CC3)cc2)c2oc3ccccc3c2n1 | 0
CC(=O)N(CCCc1ccc(C(C)(C)C)cc1)CCCN(C)C | 0
Cc1cccc(N2CCN(C(c3cccs3)c3nnnn3C(C)(C)C)CC2)c1C (stereo unspecified) | 320
CC(C)C(=O)Nc1ccc([N+](=O)[O-])c(C(F)(F)F)c1 | 280[10 µg/mL]
CCCCn1c(CNC(=O)c2cccs2)nc2ccccc21 | 0
COc1ccc(OC)c(C(O)C(C)N)c1 (stereo unspecified) | 0[10 µg/mL]
N[C@@H]1CONC1=O | 80[10 µg/mL]
Cn1c(SC/C=C/c2ccccc2)nnc1-c1cnccn1 | 0
COc1ccc2cc(CCC(C)=O)ccc2c1 | 80[10 µg/mL]
CCC(C)[C@H](NC(=O)N1CCCC1)C(=O)O (stereo partly specified) | 0
COc1cc(-n2cnnn2)ccc1S(=O)(=O)N1CCOCC1 | 0
C[C@@H](O)[C@H]1C(=O)N2C(C(=O)O)=C(S[C@@H]3CN[C@H](C(=O)N(C)C)C3)[C@H](C)[C@H]12 | 0[10 µg/mL]
CCC(=O)c1cc2c(C)cc(=O)oc2c(C)c1O | 0
CC(C)Cn1cc(C(=O)NCCCOC(C)C)c2c3ccccc3n(C)c2c1=O | 40
Cc1cc(=O)n2nc(-c3ccc(C(F)(F)F)cc3)sc2n1 | 0
CCOCCCNC(=O)c1cc2c(-c3ccc(Cl)cc3)nn(C)c2s1 | 0
O=C(NCCCO)c1nnc(Cc2c(F)cccc2Cl)o1 | 40
CC(=O)Nc1nonc1-c1nc2ccccc2n1Cc1ccccn1 | 40
O=C(NCc1ccco1)c1ccc(Cn2c(=O)c3sccc3n(Cc3cccc(F)c3)c2=O)cc1 | 40
C=C(C)Cc1c(C)c(C#N)c2nc3ccccc3n2c1N1CCCCC1 | 40
CCOC(=O)N1CCN(S(=O)(=O)c2ccc(F)c(C(=O)Nc3cc(C)cc(C)c3)c2)CC1 | 40
CCOC(=O)c1ccc(-n2c(=S)sc3c(=O)[nH]c(C)nc32)cc1 | 0
Cc1ccc(OCC(=O)O)c(-n2nc3ccccc3n2)c1 | 0
CN(C)CCC(c1ccc(Cl)cc1)c1ccccn1 (stereo unspecified) | 0[10 µg/mL]
Cc1nc(NC(C)C)c2oc3ccccc3c2n1 | 0
Cc1cc(N2CCCCC2)c(F)cc1[N+](=O)[O-] | 0
N[C@H]1CONC1=O | 40[10 µg/mL]

The final 2 compounds of the section before lead into the next:
compound | V. cholerae QS
Cc1cc(N2CCCCC2)c(F)cc1[N+](=O)[O-] | 0
N[C@H]1CONC1=O | 40[10 µg/mL]
COc1ccc(C(c2sc3ncnn3c2O)N2CC(C)OC(C)C2)cc1OC (stereo unspecified) | 0
COc1ccc2c(Cl)c(-c3nnc(SCC(N)=O)n3C)sc2c1 | 0
CC(=O)N(CC(O)CN(C(C)=O)c1c(I)c(C(=O)NCC(O)CO)c(I)c(C(=O)NCC(O)CO)c1I)c1c(I)c(C(=O)NCC(O)CO)c(I)c(C(=O)NCC(O)CO)c1I (stereo unspecified) | 0[10 µg/mL]
c1ccc2c(c1)nc(N1CCOCC1)c1c3ccccc3[nH]c21 | 0
CC12CC(NC(=O)N1Cc1ccccc1)c1ccccc1O2 (stereo unspecified) | 0
CCOC(=O)N1CCC(N2Cc3cccc(C(=O)NCC4CCN(CC(C)C)C4)c3C2=O)CC1 (stereo unspecified) | 0
Cc1cc(C)n(CC(O)Cn2c3ccccc3c3ccccc32)n1 (stereo unspecified) | 0
CSc1nc(-c2ccccc2)[nH]c(=S)c1C(C)=O | 0
CCOC(=O)N1CCC(N2Cc3cccc(C(=O)N4CCN(C5CCCCC5)CC4)c3C2=O)CC1 | 40
CCOC(=O)c1ccc(N=c2sc(C(=O)OC)cc(=O)n2Cc2ccco2)cc1 | 40
CCCCn1nnnc1SCC(=O)Nc1ccc2c(c1)OCCO2 | 40
Cc1c(Cl)cccc1NC(=O)CN1C(=O)CSc2ncccc21 | 0
CCOCCCN=Cc1c(O)n(Cc2ccccc2)c(=O)[nH]c1=O | 0
CCCc1cc(=O)[nH]c(Nc2ccc(O)cc2)n1 | 0
Cc1ccc(/C(=C\CN2CCCC2)c2ccccn2)cc1 | 40[10 µg/mL]
Cc1cccc2c1N(CC(=O)OC(C)C)C(=O)C2=O | 0
Cc1nn(C)c(C(=O)Nc2ccn(Cc3c(F)c(F)cc(F)c3F)n2)c1[N+](=O)[O-] | 40
c1ccc(-c2noc(CN3CCN(c4ccccc4)CC3)n2)cc1 | 0
Cc1ccc(C)c(Cn2c(CN(C)Cc3ccccc3)nc3c2c(=O)n(C)c(=O)n3C)c1 | 0
O=C(NCC(c1ccco1)N1CCCC1)c1ccccc1F (stereo unspecified) | 40
CC(Oc1ccc(-c2ccccc2)c(F)c1)c1ccn(S(=O)(=O)c2ccc(F)cc2)n1 (stereo unspecified) | 120
COc1ccc(C)c2sc(=NC(=O)C(C)C)n(C)c12 | 0
COC(=O)c1c(/N=C/NOCc2ccc(Cl)cc2)sc2c1CCN(c1ncc(C(F)(F)F)cc1Cl)C2 | 0
CC12CN3CC(C)(CN(C1)C3c1cccnc1)C2=O (stereo unspecified) | 0
CN1CCC(OC(c2ccccc2)c2ccccc2)CC1 | 0[10 µg/mL]
O=c1cc(-c2ccccc2)oc2cc(O)cc(O)c12 | 40[10 µg/mL]
CCN(CC)S(=O)(=O)c1cccc(-c2nnc(SCC(=O)c3ccc(Cl)s3)n2C)c1 | 0
CC(C)(C)NCC(O)c1cc(O)cc(O)c1 (stereo unspecified) | 0[10 µg/mL]
CC1CCN(CCCNC(=O)c2cc3c(=O)n(C)c4ccccc4c3n2C)CC1 | 40
O=C(CC1Oc2ccccc2NC1=O)NC1CCCC1 (stereo unspecified) | 0
CCCCn1c(O)c(C(C)=NCCCn2ccnc2)c(=O)[nH]c1=O | 0
COc1ccc(C)c2sc(NC(=O)C3=COCCO3)nc12 | 0
CCOCCCNC(=O)C1CCCN(S(=O)(=O)CC)C1 (stereo unspecified) | 40
Cn1c(=O)c2c(nc(CN3CCN(Cc4ccccc4)CC3)n2Cc2ccc(Cl)cc2)n(C)c1=O | 160
COc1ccc(NC(=O)CC2Sc3ncnn3C2=O)cc1 (stereo unspecified) | 40
CC(=O)Nc1ccc(-c2nnc(SCC(=O)c3ccc4c(c3)Cc3ccccc3-4)n2C)cc1 | 0
Cn1cccc1Cc1nnc(SCC(=O)Nc2nc3ccccc3s2)n1CCc1ccccc1 | 0
COc1ccccc1-n1nnnc1SCC(=O)Nc1cc(C)on1 | 0
Cc1ccc2c(c1)NC(=O)C(CC(=O)NCc1ccc(F)cc1)O2 (stereo unspecified) | 0
CCC1(c2ccccc2)NC(=O)N(C)C1=O (stereo unspecified) | 0[10 µg/mL]
Cc1ccc(-c2nnn(CC(=O)N(CC3CCCO3)C(C(=O)NC3CCCC3)c3ccc(F)cc3)n2)o1 (stereo unspecified) | 0
CCOC(=O)C(C)Sc1nnc(Cc2cc(=O)[nH]c(=O)[nH]2)n1-c1ccc(OCC)cc1 (stereo unspecified) | 0
CCOC(=O)c1ccc(NS(=O)C23CC4CC(CC(C4)C2)C3)cc1 (stereo unspecified) | 0
COc1ccc(C(=O)Nc2ccc(CN3CCOCC3)cc2)cc1 | 40
CCOC(=O)c1cccc(NC(=O)COC)c1 | 0
CCOc1ccc(C2c3c(oc4cc(C)c(C)cc4c3=O)C(=O)N2CCCN(C)C)cc1OC (stereo unspecified) | 0
CCOC(=O)c1c(C)[nH]c(C(=O)OCC(=O)Nc2ccc(OCC)cc2)c1C | 0
Cc1cc(-n2c(C)cc(C(=O)CSc3ccc4c(c3)OCCO4)c2C)no1 | 40
CCCN1CCC[C@@H]2Cc3[nH]ncc3C[C@H]21 | 0[10 µg/mL]
Cc1ccc(NC(=O)CN(C)S(=O)(=O)c2cnc[nH]2)cc1C | 0
O=C(c1csc2c1CCCC2)N1CCCCC1 | 40
O=C(NC1CCCCCC1)C1CCCN1S(=O)(=O)c1cccc2cccnc12 (stereo unspecified) | 0
CCC1CCCCN1CCCNC(=O)CC1Oc2ccccc2NC1=O (stereo unspecified) | 40
CCOC(=O)CC1C(=O)NCCN1C(=O)c1cc2c(=O)n3cccc(C)c3nc2s1 (stereo unspecified) | 0
CCCc1cc(C(=O)Nc2sc(C)c(C)c2C(=O)OCC)no1 | 240
Cc1ccc(/C(N)=N/OC(=O)COc2ccccc2Cl)cc1 | 0

Overlap with the part before: four entries; new compounds follow.
compound | V. cholerae QS
CCC1CCCCN1CCCNC(=O)CC1Oc2ccccc2NC1=O (stereo unspecified) | 40
CCOC(=O)CC1C(=O)NCCN1C(=O)c1cc2c(=O)n3cccc(C)c3nc2s1 (stereo unspecified) | 0
CCCc1cc(C(=O)Nc2sc(C)c(C)c2C(=O)OCC)no1 | 240
Cc1ccc(/C(N)=N/OC(=O)COc2ccccc2Cl)cc1 | 0
CC1CCCCN1c1nnc(NC(=O)Cn2c(=O)oc3ccccc32)s1 (stereo unspecified) | 40
CC1CCN(c2ncnc3nc[nH]c23)CC1 | 40
CCOC(=O)N1CCN(C(=O)CN(c2ccc(OCC)cc2)S(C)(=O)=O)CC1 | 200
CCC(CC)C(=O)Nc1cc(C)c2c(=O)oc3ccccc3c2n1 | ?
COC(=O)c1cc(COc2ccc3oc(C)c(C(=O)OC(C)C)c3c2)c(C)o1 | 0
O=C(Cc1cccs1)NCCn1ccc2ccccc21 | 0
COC(=O)C1C2C=CC3(CN(c4ccc(Cl)c(F)c4)C(=O)C13)O2 (stereo unspecified) | 0
CCCc1nc(SCC(=O)Nc2ccccc2OC)c2c(=O)n(C)c(=O)n(C)c2n1 | 0
O=C(CSCc1ccccc1Cl)N1CCN(c2ccccn2)CC1 | 0
Fc1ccccc1COc1ccc(-c2nnn(Cc3ccccc3F)n2)cc1 | 0
Cc1nnc(SCC(=O)N2CCN(c3ccccc3)CC2)n1-c1ccccc1 | 0
CCCCCCCCn1c(=O)c(C(=O)OCC)c(O)c2ccccc21 | 0
Cc1nn(Cc2ccc(Cl)c(Cl)c2)c(C)c1NC(=O)c1cc(C2CC2)on1 | 0
CCOC(=O)Cn1c(=O)oc2cc(S(=O)(=O)NCCCc3ccccc3)ccc21 | 0
Cn1c(C(=O)OCC(=O)NCc2ccco2)cc2sccc21 | 40
COc1ccc(NC(=O)CN(C)S(=O)(=O)c2ccc3c(c2)CCC(=O)N3)c(OC)c1 | 0
CCOc1cccc(OCCCCN2CCOCC2)c1 | 40
COc1ccc(N2C(=O)C3CCCN3C2c2ccccc2Cl)cc1 (stereo unspecified) | 40
Cc1cc(NC(=O)CSc2nnc(-c3c[nH]c4ccccc34)n2-c2ccc(Cl)cc2)no1 | ?
Cc1csc2nc(CNS(=O)(=O)N(C)C)cn12 | 0
O=C(O)c1ccccc1C(=O)Nc1ccc(S(=O)(=O)Nc2nccs2)cc1 | 0[10 µg/mL]

Only part of the results is shown, so the mix of outcomes need not match the whole.
